Source: PubChem (NMMLSC)
Bead autofluor = compound fluorescence in toxin protease inhibitor counterscreen | compound autofluorescence counterscreen, microsphere flow cytometry; hits give high values | fluorescence intensity (test concentration not listed) | 360,000 tested, 3.1% active;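 active = at least 3 SD above the mean of all compounds, about 16000 in these data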;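 also: 100 nL of 1 mM stock went into each well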
* marks the source's active call; other numbers are inactive results. These rows are one share of the data (hit frequency here may not be typical).

nr | Compound | Bead autofluor
1 | CCNc1nc(-c2sc(NC(=O)C(C)(C)C)nc2C)c(-n2cc(-c3ccccc3)nn2)s1 | 4685
2 | Cc1cc2nc(-c3cccc(Br)c3)c(Cc3ccsc3)n2c(C)c1Br | 4588
3 | O=S1(=O)CC(N2CCN(CCO)CC2)CN1Cc1cn(Cc2cccc(Cl)c2)nn1 (stereo unspecified) | 5757
4 | O=C(Nc1ccc(OCc2ccccc2)cc1)Nc1nnc([C@@H]2C[C@H](O)[C@@H](CO)O2)s1 | 2783
5 | Cc1ccccc1NC(=O)Nc1nc(C(N)C2CCCCC2)cs1 (stereo unspecified) | 3149
6 | Cc1ccc(NC(=O)C2(C)CCN2C(=O)CC(c2ccccc2)c2ccccc2)cc1 (stereo unspecified) | 3978
7 | O=C(NN=Cc1ccccc1Cl)c1ccccc1 | 3945
8 | COc1cccc(S(=O)(=O)N(C)C[C@@H]2OCc3cnnn3CCCC(=O)N([C@@H](C)CO)C[C@H]2C)c1 | 2939
9 | CC(C)Nc1ncnc2c1ncn2[C@H]1CN(Cc2ccccc2)C[C@@H](CO)O1 | 4200
10 | COCCCNC(=O)C[C@@H]1C[C@@]2(C(=O)OC)CCCCC=C2N(CCC2=CCCCC2)C1=O | 5931
11 | COc1ccc(Cc2c(-c3ccc(C)cc3)nc3cc(C)c(Br)c(C)n23)c(C)c1 | 6888
12 | COc1ccccc1N1CCN(S(=O)(=O)CCNC(=O)CC2CCCC2)CC1 | 2982
13 | CN1OC[C@@H]2CN(C(=O)c3cccc4ccccc34)[C@H](c3ccc(N4CCCCC4)cc3)C[C@@H]21 | 11734
14 | Cc1ccc(OCCNC(=O)[C@H]2O[C@@H](n3cnc4c(N)ncnc43)[C@H](O)[C@@H]2O)cc1C | 4195
15 | Cc1cn([C@H]2C[C@H](O)[C@@H](CNC(=O)[C@@H]3C[C@H](F)CN3)O2)c(=O)[nH]c1=O | 2873
16 | CCOc1ccccc1N1CCN(CC(=O)Nc2nccs2)CC1 | 3461
17 | CN(C)c1ccc(-c2cc(NC=O)c3ncc(-c4ccc(F)c(Cl)c4)n3c2)cc1 | 4676
18 | Nc1ccn([C@@H]2O[C@H](C(=O)N3CCCN(Cc4cccs4)CC3)[C@@H](O)[C@H]2O)c(=O)n1 | 5328
19 | CC(O)(c1cccc(F)c1)c1nc(-c2cncnc2)cs1 (stereo unspecified) | 3533
20 | Cc1ccc([C@H]2C[C@H](n3cc(C4CC4)nn3)[C@@H](O)CN2Cc2cccs2)cc1 | 3701
21 | CC1(C)CC(=O)C=C(c2ccc(Oc3ccccc3)cc2)C1=O | 3621
22 | CCOC(=O)c1cccc(C2=C(CNC(=O)c3ccc([N+](=O)[O-])cc3)[C@H]3CC[C@@H](C2)N3Cc2ccccc2)c1 | 3620
23 | COc1ccc(OC2(C)CCN(Cc3ccc(-c4ccccc4)o3)C2)cc1 (stereo unspecified) | 3884
24 | Cn1cc(Cc2ccc(C(=O)NCc3ccccc3)cn2)c2ccccc21 | 3180
25 | CCCCc1c(-c2ccccc2OC)ncn1CCc1ccccc1 | 5707
26 | COc1ccc(-c2cc(NC=O)c3ncc(-c4cccc(C(=O)N(C)C)c4)n3c2)c(OC)c1 | 3581
27 | Cc1cnc(C2OCCO2)c2cccc(N)c12 | 3808
28 | CCOC(=O)C1(C)CCCN(C(=O)c2ccccc2C(F)(F)F)C1 (stereo unspecified) | 3713
29 | COc1ccc(C(=O)Nc2nnc([C@@H]3C[C@H](O)[C@@H](CO)O3)s2)cc1 | 3071
30 | CCCn1c(SCC(=O)Nc2ccc(S(=O)(=O)N3CCOCC3)cc2)n[nH]c1=O | 3826
31 | C[C@H]1COc2cc(N3CCSCC3)ccc2S(=O)(=O)N1 | 5558
32 | COC(=O)[C@H](Cc1ccccc1)NC(=O)CC[C@H]1O[C@@H](n2ccc(=O)[nH]c2=O)[C@H](O)[C@@H]1O | 5493
33 | CCCCCCn1c(SCC(=O)NC2CCS(=O)(=O)C2)nc2ccccc2c1=O (stereo unspecified) | 2934
34 | COc1ccc(NC(=O)C2Cc3c(-c4ccc(Cl)cc4)ccnc3O2)cn1 (stereo unspecified) | 3586
35 | CC(=O)Nc1cc(-c2ccsc2)cn2c(-c3ccc(F)cc3)cnc12 | 4230
36 | Cc1nc(N2CCCCC2)[nH]c(=O)c1CN(C)N=O | 2737
37 | C[C@@H]1CCCCO[C@@H](CN(C)Cc2ccccc2)[C@@H](C)CN([C@H](C)CO)C(=O)c2cc(NC(=O)Nc3cccc4ccccc34)ccc2O1 | 3842
38 | NC(Cc1ccccc1)c1csc(Nc2ccc(C(F)(F)F)cn2)n1 (stereo unspecified) | 2943
39 | CC(C)CC1C(=O)N(Cc2cn(CCC3OCCO3)nn2)CCS(=O)(=O)N1Cc1ccc(-c2ccc(F)cc2)cc1 (stereo unspecified) | 3596
40 | Cc1cc(Br)cn2c(Cc3cccc(F)c3)c(-c3ccc(Cl)cc3)nc12 | 6447
41 | CC(CN1CCN(CCOCCO)CC1)CN1c2ccccc2Sc2ccc(Cl)cc21 (stereo unspecified) | 3792
42 | O=C(NCc1cc(Cl)cc(Cl)c1)c1ccc2nc([C@@H]3O[C@H](CO)[C@@H](O)[C@H]3O)[nH]c2c1 | 2992
43 | COc1ccccc1Cc1c(-c2ccco2)nc2c(C)cc(Br)cn12 | 4928
44 | Cc1ccc(NC(=O)COC(=O)c2ccco2)cc1S(=O)(=O)N1CCCCC1 | 3578
45 | COc1cc(NCC2COc3c(ccc(OC)c3OC)C2=O)c([N+](=O)[O-])cc1OC (stereo unspecified) | 5367
46 | CCOC(=O)[C@]12CCCC=C1N(Cc1ccc3c(c1)OCO3)C(=O)[C@H](CC(=O)N1CCN(C(=O)c3ccco3)CC1)C2 | 3928
47 | O=C(Nc1cccc(C(F)(F)F)c1)Nc1nnc([C@H]2C[C@H](O)[C@@H](CO)O2)s1 | 3854
48 | CCc1nc2ccc(C(=O)N(CC)CCN(C)C)cn2c1N(C)CCCc1ccccc1 | 3492
49 | Cc1ccc(S(=O)(=O)N(C)CC(=O)N(C)Cc2cccs2)cc1 | 3779
50 | CCn1c(=O)c2[nH]c(Cl)nc2n(CC)c1=O | 3387
51 | CC1(C(=O)NS(=O)(=O)Cc2cccc(Cl)c2)CCN1C(=O)CCc1ccccc1 (stereo unspecified) | 3450
52 | O=C(c1ccccc1F)N1CCCC(N2CCN(Cc3ccc4c(c3)OCO4)CC2)C1 (stereo unspecified) | 3553
53 | C[C@@H]1CN([C@H](C)CO)C(=O)CCCn2cc(nn2)CO[C@H]1CN(C)C(=O)NC1CCCCC1 | 3857
54 | COc1cccc(-c2cnc3c(NC(C)=O)cc(-c4ccsc4)cn23)c1 | 3470
55 | CCOC(=O)C1=CCN(S(=O)(=O)c2ccc(C)cc2)C1c1ccccc1F (stereo unspecified) | 4308
56 | CC(=O)Nc1ccc(-c2ccnc3c2CC(C)(C(=O)Nc2ccc(Cl)cc2)O3)cc1 (stereo unspecified) | 3818
57 | Cc1noc(C)c1NC(=O)N(C)C[C@@H]1Oc2ncc(C#CC3CC3)cc2C(=O)N([C@@H](C)CO)C[C@@H]1C | 3310
58 | COc1ccc(NC2CCCN(C(=O)c3ccccc3-c3ncc[nH]3)C2)cc1 (stereo unspecified) | 3537
59 | CS(=O)(=O)c1ccc(C2=C(CNC(=O)c3cccnc3)[C@H]3CC[C@@H](C2)N3Cc2ccccc2)cc1 | 3642
60 | OCCN(Cc1ccccn1)Cc1ccccn1 | 5932

Continued:
nr | Compound | Bead autofluor
61 | CCOc1ccccc1OCCCC(=O)N1CCN(S(=O)(=O)c2ccccc2C#N)CC1 | 2810
62 | Cc1ccc2c(c1)=N/C(=N\c1[nH]c(O)c3ccccc13)N=2 | 3486
63 | O=C(CN1C(=O)c2ccccc2C1=O)C(O)CN1C(=O)c2ccccc2C1=O (stereo unspecified) | 5548
64 | CC1=C(C(=O)N2CCOCC2)CC(CC(=O)NCc2cccs2)C(=O)N1CCC1=CCCCC1 (stereo unspecified) | 4000
65 | CCOC(=O)c1c(C)cc2c(CO)n[nH]c(=O)c2c1C | 3695
66 | COc1ccc(CCN2C(=O)c3ccccc3C2c2nnnn2-c2c(C)cccc2C)cc1OC (stereo unspecified) | 4483
67 | COc1ccc(C(O)c2ncc(-c3ccccc3Cl)[nH]2)cc1 (stereo unspecified) | 3983
68 | CCCNC(=O)c1cc2c(c(-c3cccc(-c4ccc(F)cc4)c3)n1)[C@@H](CCO)N(S(=O)C(C)(C)C)C2 (stereo partly specified) | 5608
69 | CCOC(=O)[C@]12CCC=C1N(Cc1cccc3ccccc13)C(=O)[C@H](CC(=O)NCc1ccc(C)o1)C2 | 6067
70 | NC(Cc1ccc(F)cc1)c1csc(Nc2ccc(C(=O)NCCCO)cn2)n1 (stereo unspecified) | 3402
71 | COc1ccc2cc(/C(C)=N/NC(=O)c3cc(C)oc3C)ccc2c1 | 3832
72 | C[C@@H]1CN([C@H](C)CO)C(=O)CCCn2cc(nn2)CO[C@H]1CN(C)C(=O)C1CCCCC1 | 4375

3 of the compounds above, field by field:
#37 C[C@@H]1CCCCO[C@@H](CN(C)Cc2ccccc2)[C@@H](C)CN([C@H](C)CO)C(=O)c2cc(NC(=O)Nc3cccc4ccccc34)ccc2O1
  Bead autofluor: 3842

#13 CN1OC[C@@H]2CN(C(=O)c3cccc4ccccc34)[C@H](c3ccc(N4CCCCC4)cc3)C[C@@H]21
  Bead autofluor: 11734

#60 OCCN(Cc1ccccn1)Cc1ccccn1
  Bead autofluor: 5932

Later entries
nr | Compound | Bead autofluor
73 | CC1(C(=O)NS(=O)(=O)c2cccc(OC(F)F)c2)CCN1C(=O)c1cccc(F)c1 (stereo unspecified) | 2912
74 | C[C@H](CO)N1C[C@H](C)[C@@H](CN(C)CC2CC2)OCc2cnnn2CCCC1=O | 3415
75 | CCN(CC)C(=O)C1=C(C)N(CCCOC)C(=O)C(CC(=O)NCCCN(C)C)C1 (stereo unspecified) | 3401
76 | O=C1NC[C@@H](CCCCN2C[C@H](Cc3ccccc3)N(CC3CCCCC3)C(=O)C2=O)N(Cc2ccccc2)C1=O | 6119
77 | CC1(C(=O)NCc2ccccc2Br)CCN1Cc1ccc(-c2ccccc2)o1 (stereo unspecified) | 3570
78 | CCCCOc1ccc(S(=O)(=O)NC(=O)C2(C)CCN2C(=O)c2c(C)noc2C)cc1 (stereo unspecified) | 4029
79 | CCCCN(C=O)c1c(CC)nc2c(OCc3ccc(Cl)cc3Cl)cccn12 | 3746
80 | Cc1nn(CC(=O)NC2CC2)c(C)c1S(=O)(=O)N(C)C | 3871
81 | O=C(Nc1ccc(N2CCOCC2)cc1)c1csc([C@@H]2C[C@H](O)[C@@H](CO)O2)n1 | 4196
82 | O=c1ccn([C@@H]2O[C@H](CNCc3cccc4c3sc3ccccc34)[C@@H](O)[C@H]2O)c(=O)[nH]1 | 4351
83 | O=S1(=O)CC(N2CCC(Cc3ccccc3)CC2)CN1Cc1ccccc1 (stereo unspecified) | 6300
84 | C#Cc1ccc(NC(=O)C2(C)CCN2C(=O)CC(c2ccccc2)c2ccccc2)cc1 (stereo unspecified) | 3963
85 | CN(C)c1ccc(CN2CCC(C(=O)NC(c3ccc(F)cc3)c3ccc4ccccc4n3)CC2)cc1 (stereo unspecified) | 4237
86 | CCOC(=O)c1csc(-c2csc(CCNC(=O)c3ccccc3)n2)n1 | 4017
87 | COc1ccc(OC)c(NC(=O)Nc2nc(C(N)C(C)C)cs2)c1 (stereo unspecified) | 3454
88 | CC1(C(=O)NS(=O)(=O)c2ccccc2OC(F)(F)F)CCN1C(=O)c1ccccc1 (stereo unspecified) | 2812
89 | COc1cc(NC(=O)CCNC(=O)N2CC(=O)Nc3ccccc32)cc(OC)c1OC | 3794
90 | N#CCCN(Cc1ccccc1)C(CCc1ccccc1)C(=O)NC1CCCCC1 (stereo unspecified) | 6354
91 | O=S1(=O)CC(N2CCC(Cc3ccccc3)CC2)CN1Cc1ccc(F)cc1 (stereo unspecified) | 6270
92 | O=C(COC(=O)Cn1cnc2ccccc21)Nc1ccc(Br)cc1 | 2746
93 | Cc1nc(SCC(=O)N2CCCC2=O)c2c(C)c(C)sc2n1 | 2953
94 | CCCS(=O)(=O)NC(=O)C1(C)CCCN(C(=O)c2sccc2C)C1 (stereo unspecified) | 2895
95 | FC(F)(F)C1=NNC(c2ccc3ccccc3c2)=NN1 | 2819
96 | O=c1[nH]c2ccccc2n1C1CCN(Cc2ccc(-c3nc4ccc(F)cc4nc3-c3ccccc3)cc2)CC1 | 6433

Reformatted as labelled records: part of the list above
87. COc1ccc(OC)c(NC(=O)Nc2nc(C(N)C(C)C)cs2)c1 (stereo unspecified)
  Bead autofluor: 3454

90. N#CCCN(Cc1ccccc1)C(CCc1ccccc1)C(=O)NC1CCCCC1 (stereo unspecified)
  Bead autofluor: 6354

86. CCOC(=O)c1csc(-c2csc(CCNC(=O)c3ccccc3)n2)n1
  Bead autofluor: 4017

93. Cc1nc(SCC(=O)N2CCCC2=O)c2c(C)c(C)sc2n1
  Bead autofluor: 2953

(continued)
nr | Compound | Bead autofluor
97 | COc1cc(C(O)c2nc(-c3ccccc3)cs2)ccc1F (stereo unspecified) | 3802
98 | NC(Cc1ccc(Cl)cc1)c1csc(Nc2nccc(C(F)(F)F)n2)n1 (stereo unspecified) | 3450
99 | CC(C)CC1C(=O)N(Cc2cn(CC3CCCCC3)nn2)CCS(=O)(=O)N1Cc1ccc(-c2ccc(Cl)c(Cl)c2)cc1 (stereo unspecified) | 2831
100 | Clc1ccccc1Nc1nc(NCC2CC2)nc2ccsc12 | 3786
101 | CCOC(=O)c1ccc(NC(=O)c2nc[nH]c2C(=O)N[C@@H](C)CO)cc1 | 3803
102 | CCOC(=O)[C@]12CCC=C1N(CCC1=CCCCC1)C(=O)[C@H](CC(=O)N1CCSCC1)C2 | 5544
103 | Clc1cccc(-c2nc3ccc(Cl)cn3c2Cc2ccccc2)c1 | 8932
104 | CCCCCCN1C[C@H](n2cc(COC(=O)c3ccccc3)nn2)[C@@H](O)C[C@@H]1c1ccc(C)cc1 | 3057
105 | FC(F)(F)Oc1ccccc1C(c1nnnn1-c1ccc2c(c1)OCCO2)N1CCN(C/C=C/c2ccccc2)CC1 (stereo unspecified) | 6451
106 | C[C@H](CO)N1C[C@H](C)[C@H](CN(C)C(=O)Nc2ccc(C(F)(F)F)cc2)Oc2ncc(-c3cccnc3)cc2C1=O | 3781
107 | CCCCn1c(O)c2n(c1=O)Cc1ccccc1N=C2c1ccccc1 | 5679
108 | CC1(C(=O)NS(=O)(=O)c2cccs2)CCN1C(=O)C1(c2ccc(Cl)cc2)CC1 (stereo unspecified) | 3912
